AF4-AF9 inh: inhibitors of AF4 peptide binding to AF9, primary screen, biochemical, AlphaScreen, biotin-AF4 peptide, FLAG-AF9, single point | inhibition, % at 10 µM | Protein AF-9 (Homo sapiens), P42568 | 350,000 compounds, 0.47% hits | AID 651704, 2012;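 active = every replicate reaching a set inhibition limit, whatever the replicate mean, cut at about 25% in these data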;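 note: 0% = plate neutral control median and 100% = total signal loss; the record names both 10 and 1 µM as test concentration; the first replicate is given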
Target sequence (P42568 whole entry, looked up): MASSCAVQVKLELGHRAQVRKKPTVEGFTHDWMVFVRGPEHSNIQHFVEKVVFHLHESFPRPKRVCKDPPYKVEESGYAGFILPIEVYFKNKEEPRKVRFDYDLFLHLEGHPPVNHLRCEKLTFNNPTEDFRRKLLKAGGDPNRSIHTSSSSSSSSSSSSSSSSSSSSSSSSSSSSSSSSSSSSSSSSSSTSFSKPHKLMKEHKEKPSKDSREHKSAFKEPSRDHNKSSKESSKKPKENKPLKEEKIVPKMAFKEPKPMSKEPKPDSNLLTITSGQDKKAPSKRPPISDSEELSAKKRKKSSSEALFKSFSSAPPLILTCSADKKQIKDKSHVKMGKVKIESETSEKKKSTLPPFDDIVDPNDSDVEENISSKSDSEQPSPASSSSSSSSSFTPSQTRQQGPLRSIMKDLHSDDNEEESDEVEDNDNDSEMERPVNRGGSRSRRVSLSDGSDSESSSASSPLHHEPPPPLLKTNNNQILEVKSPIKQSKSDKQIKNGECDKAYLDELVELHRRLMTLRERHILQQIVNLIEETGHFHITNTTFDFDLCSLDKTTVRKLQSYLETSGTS
FGF22 binding: binders of human FGF22 protein, primary screen, FGF22 synaptogenesis inhibitor project, biophysical, thermal shift, single point; Fibroblast growth factor 22 (Homo sapiens), Q9HCT0; recombinant FGF22 thermal shift, SYPRO orange fluorescence; percent of sucrose octasulfate shift, DMSO zero; calls only at 9.99 µM; 340,000 compounds, 1.5% hits;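 active = melting point raised past a set limit in the mean and every replicate; three in four hits are not shown here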
Target sequence (Q9HCT0 whole entry, looked up): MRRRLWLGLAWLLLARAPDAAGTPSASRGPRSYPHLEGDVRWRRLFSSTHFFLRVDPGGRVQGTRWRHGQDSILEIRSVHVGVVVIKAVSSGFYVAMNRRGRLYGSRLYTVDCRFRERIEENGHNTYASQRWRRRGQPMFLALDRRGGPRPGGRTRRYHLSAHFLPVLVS
rRNA inh HTS: reduced GFP signal of wild-type E. coli, primary screen, bacterial rRNA inhibitor project, GFP/RFP fluorescence, OD600, single point; 350,000 compounds, 1.6% hits; GFP signal change (wild-type ribosome), % (no concentration beside the values); E. coli WT GFP vs humanized-ribosome RFP mutants, 24 h; active compounds read low; DMSO median 0, no signal -100; AID 720706, 2013;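 active = significant combined selectivity score with lowered wild-type GFP, culture density cut under 30%, mutant RFP and density less affected; inactive = any of these conditions unmet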; note: one replicate is shown; some compounds called inactive have numbers as strong as hits
rRNA inh HTS OD600: second read-out of rRNA inh HTS, no call of its own (marks repeat the call); OD600 change, %; measured here: OD600 growth;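 optical density of the mix in the first replicate; 0 = DMSO median and -100 = no signal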
rRNA inh HTS RFP: further read-out of rRNA inh HTS, marked with its call; RFP signal change, %; measured here: RFP humanized mutant strains;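 first replicate; 0 = DMSO median and -100 = no signal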
Starred values were filed as active, the others as inactive; i = inactive; & = joins results of further samples.

Under each structure – AF4-AF9 inh, rRNA inh HTS RFP, rRNA inh HTS OD600, rRNA inh HTS, FGF22 binding
> O=C(c1ncn2c1c(=O)[nH]c1ccccc12)N1CCc2ccccc2C1
  -1.5, 3.4, -3, -2, i
> CC(C)NC(=O)N(C)C[C@H]1Oc2ncc(-c3ccccc3F)cc2C(=O)N([C@H](C)CO)C[C@H]1C
  -2.2, -2.3, 12, 9, i
> Nc1nc2ncccn2c1-c1ccc(C(F)(F)F)cc1
  -1.7, 4.2, 2, 0, i
> C/C=C/c1ccc2c(c1)O[C@@H](CN(C)C(=O)CC)[C@H](C)CN([C@@H](C)CO)S2(=O)=O
  0.2, -0.7, 1, -1, i
> C[C@@H]1CN([C@H](C)CO)C(=O)c2cccc(NC(=O)Nc3ccc(F)cc3)c2O[C@@H]1CN(C)Cc1ccc(-c2ccccc2)cc1
  4.5, 3.7, -15, -5, i
> COc1ccc(NC(=O)N(C)C[C@H]2OCc3cnnn3CCCC(=O)N([C@H](C)CO)C[C@@H]2C)c(OC)c1
  2.1&0.2, 4.8&1.6, 13&-3, 9&1, i
> N#C[C@H]1[C@@H](c2ccccc2-c2ccc(F)cc2)[C@@H](CO)N1c1ncc(-c2ccccc2)s1
  -0.2, 0.9, 16, 1, i
> COc1ccc(CN2C[C@H](C)[C@@H](OC)CN(C)C(=O)c3ccc(NC(C)=O)cc3OC[C@@H]2C)cc1
  1.3, 0.3, 1, 0, i
> CC1(C)OC(=O)C2=C(C[C@@H](CCc3ccccc3)O[C@H]2CCc2cccc(Cl)c2)O1
  -1.4, 3.9, 22, 35, i
> CC(CC(=O)Nc1ccc2c(c1)c(=O)n(C)n2-c1ccccc1F)c1ccccc1 (centres undefined)
  -6.7, -2.4, -2, 5, i
> COc1ccccc1-c1cc2nc(-c3ccccc3)cc(N3CCN(C(=O)c4ccoc4)CC3)n2n1
  -8.2, 1.3, -6, -2, i
> C[C@H]1CCCCO[C@H](CN(C)C(=O)C2CCCCC2)[C@@H](C)CN([C@@H](C)CO)C(=O)c2cc(NS(=O)(=O)c3cccs3)ccc2O1
  -9.9, 1.3, -7, -4, i
> C[C@H]1CN([C@@H](C)CO)C(=O)c2cccc(NC(=O)C3CC3)c2O[C@@H]1CN(C)CC1CC1
  -3.4, -3.2, 2, -5, i
> C[C@H]1CN([C@@H](C)CO)C(=O)c2cc(-c3cccc(F)c3)cnc2O[C@H]1CN(C)C(=O)C1CCC1
  -3.9, -0.9, 3, -1, i
> CCCNC(=O)N1C[C@H]2[C@@H](c3ccccc31)[C@H](CO)N2C(=O)c1ccccc1
  0.5, -2.8, 6, 5, i
> CC(C)NC(=O)N(C)C[C@@H]1OCCCC[C@@H](C)Oc2ccc(NC(=O)CCCN(C)C)cc2C(=O)N([C@@H](C)CO)C[C@H]1C
  -3.4, -0.6, -7, 4, i
> COc1ccc(NC(=O)N[C@@H]2CC[C@H](CCn3cc(-c4ccccc4F)nn3)O[C@@H]2CO)cc1
  8.4, 1.0, -6, -10, i
> C[C@@H]1CN([C@@H](C)CO)C(=O)Cc2cc(NS(=O)(=O)c3cccs3)ccc2O[C@H]1CN(C)Cc1ccc(C(=O)Nc2ccccc2N)cc1
  -0.1, -5.0, -15, -6, i
> C[C@H](CO)N1C[C@H](C)[C@@H](CN(C)C(=O)NC2CCCCC2)Oc2ccc(NC(=O)Cc3cn(C)c4ccccc34)cc2CC1=O
  3.4, 0.9, -2, 1, i
> CCC(=O)N1CC[C@@H]2[C@H]1c1cc(C#Cc3ccc(F)cc3)ccc1N[C@@H]2CO
  2.3, 17, -34, -9, i
> C[C@H]1CN([C@@H](C)CO)C(=O)c2cc(C3=CCCCC3)cnc2O[C@H]1CN(C)C(=O)c1ccccn1
  -4.0, -3.3, 2, 2, i
> COc1ccc2c3c(n(C)c2c1)[C@H](CO)N(C(=O)c1cccc(F)c1)CC31CN(C(=O)c2cccc(F)c2)C1
  0.8, 4.1, -10, -8, i
> COCCNC(=O)C1(C)CCCN(C(=O)c2ccco2)C1 (centres undefined)
  -1.6, -3.5, 10, 6, i
> C[C@H]1CN([C@@H](C)CO)S(=O)(=O)c2ccc(C#Cc3ccc(F)cc3)cc2O[C@H]1CN(C)C(=O)CN(C)C
  19, 8.0, -7, 6, i
> COc1cc(NC(=O)c2ccc(-c3cccnc3)c3ccoc23)cc(OC)c1OC
  0.3, -2.2, 14, -2, i
> C[C@@H]1CN([C@H](C)CO)C(=O)c2cccc(NS(=O)(=O)c3ccc(F)cc3)c2O[C@@H]1CN(C)Cc1ccc(C(=O)Nc2ccccc2N)cc1
  -3.7, 0.4, 1, 1, i
> O=C(NCc1ccco1)Nc1c(Cl)cc(Cl)cc1Cl
  3.8, -1.3, 9, 3, i
> CC1(C(=O)NCc2cccs2)CCN1C(=O)Cc1cccc2ccccc12 (centres undefined)
  -2.3, 3.4, 3, -1, i
> CC(=O)N(C)C[C@H]1Oc2ncc(-c3cccc(F)c3)cc2C(=O)N([C@H](C)CO)C[C@@H]1C
  -1.0, 0.6, 8, 0, i
> CCCNC(=O)C[C@H]1C[C@H]2c3cc(NC(=O)COC)ccc3O[C@H]2[C@@H](CO)O1
  -3.2, 0.1, 6, 2, i
> COc1ccc(-c2cnc3c(c2)C(=O)N([C@H](C)CO)C[C@H](C)[C@H](CN(C)C(=O)CN(C)C)O3)cc1
  -2.5, -5.0, -2, -1, i
> CC(=O)c1ccc(-c2cnc3c(NC=O)cc(-c4ccc(C(=O)N5CCOCC5)cc4)cn23)cc1
  3.9, 0.3, 4, -6, i
> CCCC(=O)N1CC2(CCN(C(=O)C3CC3)CC2)c2c(n(C)c3cc(OC)ccc23)[C@@H]1CO
  -0.8, 2.3, -5, -1, i
> CCCNC(=O)C1(C)CCCN(C(=O)Cc2cccc(OC)c2)C1 (centres undefined)
  -2.9, 4.7, 22, 13, i
> CCOC(=O)[C@]12CCCC=C1N(Cc1ccco1)C(=O)[C@H](CC(=O)N1CCOCC1)C2
  0.5, -1.1, 23, 17, i
> O=[N+]([O-])c1ccc(Br)c(CN2CCN(c3ncc(Cc4ccccc4)cn3)CC2)c1
  2.1, -1.5, 14, 1, i
> C[C@@H]1CN([C@H](C)CO)C(=O)c2cc(NC(=O)CCC(F)(F)F)ccc2O[C@@H](C)CCCCO[C@H]1CN(C)Cc1ccncc1
  0.3, -0.5, 6, 0, i
> CC(C)c1cn(CC[C@H]2CC[C@@H](NS(=O)(=O)c3ccccc3)[C@@H](CO)O2)nn1
  -2.5, -0.1, 1, -2, i
> CC(C)NC(=O)N1CCCCN2[C@H](CO)[C@@H](c3ccc(C#C[C@H](C)O)cc3)[C@H]2C1
  -1.7, -0.8, 9, 7, i
> C[C@@H]1CN([C@H](C)CO)C(=O)c2cc(N(C)C)ccc2O[C@H]1CN(C)S(=O)(=O)c1ccc(Cl)cc1
  -0.9, -0.8, -6, -4, i

Filtered by structure: those above containing a furan ring, fused or not.
Under each structure – AF4-AF9 inh, rRNA inh HTS RFP, rRNA inh HTS OD600, rRNA inh HTS, FGF22 binding
> COc1ccccc1-c1cc2nc(-c3ccccc3)cc(N3CCN(C(=O)c4ccoc4)CC3)n2n1
  -8.2, 1.3, -6, -2, i
> COCCNC(=O)C1(C)CCCN(C(=O)c2ccco2)C1 (centres undefined)
  -1.6, -3.5, 10, 6, i
> COc1cc(NC(=O)c2ccc(-c3cccnc3)c3ccoc23)cc(OC)c1OC
  0.3, -2.2, 14, -2, i
> O=C(NCc1ccco1)Nc1c(Cl)cc(Cl)cc1Cl
  3.8, -1.3, 9, 3, i
> CCOC(=O)[C@]12CCCC=C1N(Cc1ccco1)C(=O)[C@H](CC(=O)N1CCOCC1)C2
  0.5, -1.1, 23, 17, i

Going on with the list:
Under each structure – AF4-AF9 inh, rRNA inh HTS RFP, rRNA inh HTS OD600, rRNA inh HTS, FGF22 binding
> C[C@H]1CN([C@@H](C)CO)C(=O)c2cccc(NS(=O)(=O)c3ccc(F)cc3)c2O[C@H]1CN(C)C(=O)Nc1ccccc1
  -0.1, 1.1, 1, -3, i
> COc1ccc(NC(=O)Nc2ccc3c(c2)C(=O)N([C@H](C)CO)C[C@H](C)[C@H](CN(C)S(C)(=O)=O)O3)cc1
  -0.8, 0.0, -6, 3, i
> O=C(CCN1CCCCC1)NCC[C@H]1CC[C@H](NC(=O)c2ccc(F)cc2)[C@@H](CO)O1
  -4.7, -1.5, 1, 0, i
> CCCNC(=O)[C@@H]1[C@@H](CO)[C@@H]2Cn3c(ccc(C4=CCCCC4)c3=O)[C@@H]2N1Cc1ccccc1F
  7.0, 5.2, -28, -5, i
> C[C@@H]1CN([C@H](C)CO)C(=O)c2cc(NS(=O)(=O)c3ccc(Cl)cc3)ccc2O[C@H]1CN(C)C(=O)Nc1ccc(F)cc1
  -0.1, -0.4, 3, -1, i
> O=C(O)C[C@H]1C[C@@H]2c3cc(NC(=O)c4ccc5c(c4)OCO5)ccc3O[C@@H]2[C@@H](CO)O1
  -2.6, 0.1, -15, -1, i
> C[C@@H]1CN([C@@H](C)CO)S(=O)(=O)c2ccc(Br)cc2O[C@@H]1CN(C)Cc1ccccn1
  -1.3&-3.6, 0.1&-4.1, -2&-14, -4&0, i
> CCC(=O)N(C)C[C@@H]1Oc2ncc(C#C[C@H](C)O)cc2C(=O)N([C@@H](C)CO)C[C@H]1C
  -4.2, -4.4, 5, 0, i
> C[C@@H]1CN([C@@H](C)CO)C(=O)c2cc(NC(=O)C3CCCCC3)ccc2O[C@@H](C)CCCCO[C@H]1CN(C)S(=O)(=O)c1ccc(Cl)cc1
  4.1&-1.9, 1.3&0.6, 15&0, 6&0, i
> O=C(c1[nH]c(C(F)(F)F)nc1-c1ccccc1)N1CCCCC1
  -1.9, -4.3, 5, 2, i
> N#C[C@H]1[C@H](c2ccc(C3=CCCC3)cc2)[C@H](CO)N1C(=O)C1CC1
  -3.1, 2.0, 1, 1, i
> Cc1noc(C)c1S(=O)(=O)N(C)C[C@@H]1OCCCC[C@@H](C)Oc2ccc(N(C)C)cc2C(=O)N([C@@H](C)CO)C[C@@H]1C
  2.1, 1.0, 8, 0, i
> C[C@@H]1CN([C@@H](C)CO)C(=O)Cc2cc(NS(=O)(=O)c3ccccc3)ccc2O[C@@H]1CN(C)Cc1ccc(Cl)c(Cl)c1
  -1.1, 3.2, -3, -4, i
> O=C(C[C@@H]1CC[C@H](NC(=O)Nc2ccc(F)cc2)[C@H](CO)O1)NCc1cccc(F)c1
  -2.1, 0.7, 1, -3, i
> C[C@H](CO)N1C[C@H](C)[C@@H](CN(C)C(=O)Nc2ccc3c(c2)OCO3)Oc2ccc(NC(=O)Nc3ccc4c(c3)OCO4)cc2CC1=O
  6.9, -1.2, -3, 0, i
> C[C@H]1CN([C@@H](C)CO)S(=O)(=O)c2ccc(-c3ccccc3)cc2O[C@@H]1CN(C)Cc1ccncc1
  3.7, 16, -68, -52, i
> Cc1noc(C)c1NC(=O)N(C)C[C@H]1Oc2c(NS(=O)(=O)c3ccc(Cl)cc3)cccc2C(=O)N([C@H](C)CO)C[C@H]1C
  -1.0, -3.7, 12, 4, i
> Cc1cc(C(=O)Nc2ccc3c(c2)C(=O)N(C)[C@H]2CC[C@@H](CC(=O)NCc4ccc(-c5ccccc5)cc4)O[C@H]2CO3)no1
  0.3, 0.7, -1, -8, i
> Cc1noc(C)c1NC(=O)N(C)C[C@@H]1Oc2ccc(NS(=O)(=O)c3cn(C)cn3)cc2CC(=O)N([C@H](C)CO)C[C@H]1C
  2.7, -0.4, 3, 2, i
> C[C@@H]1CN([C@H](C)CO)C(=O)Cc2cc(N(C)C)ccc2O[C@H]1CN(C)Cc1ccc(C(=O)O)cc1
  -2.8, 1.2, -1, 5, i
> CCS(=O)(=O)N1CCCCN2[C@H](CO)[C@H](c3ccc(C#Cc4ccccn4)cc3)[C@@H]2C1
  1.1, 0.1, 0, 1, i

Entries of single compounds from above. Screens in order: AF4-AF9 inh	rRNA inh HTS RFP	rRNA inh HTS OD600	rRNA inh HTS	FGF22 binding
CCCNC(=O)[C@@H]1[C@@H](CO)[C@@H]2Cn3c(ccc(C4=CCCCC4)c3=O)[C@@H]2N1Cc1ccccc1F in the list: 7.0	5.2	-28	-5	i
C[C@H]1CN([C@@H](C)CO)C(=O)c2cccc(NS(=O)(=O)c3ccc(F)cc3)c2O[C@H]1CN(C)C(=O)Nc1ccccc1 in the list: -0.1	1.1	1	-3	i

Source: PubChem BioAssay

These rows are one share of the data. The share of hits here may be higher or lower than overall.
